High-throughput results (PubChem)
NOMO-1 viab = STK33 inhibitor candidate reducing NOMO-1 cell viability; actives 7.5% (n = 37,000); AID 2330; NOMO-1 AML viability, CellTiter-Glo luminescence, 72 h; inhibition, % (concentration not given with the values);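 active = most replicates above 80%; inconclusive = exactly half above 80%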;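 note: wells of about 30 µL received 25 nL stock; 0% = median of vehicle wells and 100% = reference inhibitor level; the first replicate is given; inactives centre near 10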
* = called active by the depositor; ? = inconclusive. The list is partial; the hit share may differ from the screen's.

Compound	NOMO-1 viab
C[C@H]1CN([C@@H](C)CO)C(=O)c2cc(NC(=O)Cc3cn(C)c4ccccc34)ccc2O[C@@H]1CN(C)S(=O)(=O)c1ccc(Cl)cc1	3
C[C@H](CO)N1C[C@H](C)[C@@H](CN(C)S(=O)(=O)c2ccc(F)cc2)Oc2ccc(NC(=O)CCCCCC(=O)Nc3ccccc3N)cc2C1=O	?
CC(C)NC(=O)Nc1ccc2c(c1)C(=O)N([C@H](C)CO)C[C@H](C)[C@H](CN(C)Cc1ccc(C(F)(F)F)cc1)O2	-5
C[C@H]1CN([C@@H](C)CO)C(=O)c2cccc(NS(=O)(=O)c3ccc(F)cc3)c2O[C@@H]1CN(C)C	13
NS(=O)(=O)c1ccc(N=CC2=C(O)c3ccccc3C2=O)cc1	-17
C[C@@H]1CCCCO[C@@H](CN(C)CC2CCCCC2)[C@@H](C)CN([C@H](C)CO)C(=O)c2cc(NS(C)(=O)=O)ccc2O1	9
C[C@H]1CN([C@@H](C)CO)C(=O)c2cccc(NC(=O)c3ccc(-c4nccs4)cc3)c2O[C@@H]1CN(C)Cc1ccccc1	?
O=C(Cn1cc(C(=O)c2cccs2)c2ccccc21)NCC1CCCO1 (centres undefined)	-9
C[C@@H]1CCCCO[C@@H](CN(C)C(=O)Nc2ccc(C(F)(F)F)cc2)[C@@H](C)CN([C@H](C)CO)C(=O)c2cc(NC(=O)Nc3cccc4ccccc34)ccc2O1	5
C[C@H](CO)N1C[C@H](C)[C@H](CN(C)Cc2ccc3c(c2)OCO3)Oc2ccc(NS(C)(=O)=O)cc2C1=O	5
Cc1noc(C)c1NC(=O)Nc1ccc2c(c1)C(=O)N([C@@H](C)CO)C[C@@H](C)[C@@H](CN(C)Cc1ccc(C(=O)Nc3ccccc3N)cc1)O2	13
C[C@H]1CN([C@@H](C)CO)C(=O)c2cccc(NC(=O)NC3CCCCC3)c2O[C@@H]1CN(C)S(=O)(=O)c1ccccc1	13
C[C@@H]1CN([C@@H](C)CO)C(=O)c2cccc(NC(=O)Nc3ccccc3)c2O[C@H]1CN(C)S(=O)(=O)c1cn(C)cn1	-3
C[C@H](CO)N1C[C@H](C)[C@@H](CN(C)C(=O)Nc2ccc3c(c2)OCO3)Oc2ccc(NC(=O)NC3CCCCC3)cc2C1=O	-1
N#CC(C(=O)c1cccs1)=C1SCCCS1	39
C[C@@H]1CCCCO[C@H](CN(C)Cc2ccccc2)[C@@H](C)CN([C@H](C)CO)C(=O)c2cc(NS(=O)(=O)c3cccs3)ccc2O1	28
C[C@@H]1CCCCO[C@H](CN(C)C(=O)CCCN(C)C)[C@@H](C)CN([C@H](C)CO)C(=O)c2cc(N(C)C)ccc2O1	9
CC(C)NC(=O)Nc1cccc2c1O[C@@H](CN(C)S(=O)(=O)c1ccccc1)[C@@H](C)CN([C@H](C)CO)C2=O	2
CC(C)NC(=O)N(C)C[C@H]1Oc2ccc(NS(C)(=O)=O)cc2C(=O)N([C@@H](C)CO)C[C@@H]1C	31
Cc1noc(C)c1S(=O)(=O)Nc1ccc2c(c1)C(=O)N([C@H](C)CO)C[C@@H](C)[C@H](CN(C)Cc1ccc(Oc3ccccc3)cc1)O2	31
Cc1noc(C)c1NC(=O)N(C)C[C@@H]1Oc2ccc(NS(=O)(=O)c3ccccc3)cc2C(=O)N([C@H](C)CO)C[C@@H]1C	-8
CN1CCN(CCn2c(-c3ccc(Br)cc3)cn3c4ccccc4nc23)CC1	34
C[C@H]1CN([C@@H](C)CO)C(=O)Cc2cc(NC(=O)C3CC3)ccc2O[C@H]1CN(C)CC1CC1	1
CC(=O)O[C@@H]1CC[C@@]2(C)C(C[C@@H](OC(C)=O)[C@@]3(C)C4=CC(=O)O[C@@H](c5ccoc5)[C@]4(C)CCC23)C1(C)C (some centres undefined)	66
COc1ccc(NC(=O)N(C)C[C@@H]2Oc3c(NS(=O)(=O)c4ccccc4)cccc3C(=O)N([C@@H](C)CO)C[C@H]2C)cc1	3
CC(C)(O[C@@H]1O[C@H](CO)[C@@H](O)[C@H](O)[C@H]1O)[C@@H](O)COc1c2ccoc2cc2oc(=O)ccc12	11
C[C@@H]1CN([C@H](C)CO)C(=O)c2cc(NS(=O)(=O)c3ccc(F)cc3)ccc2O[C@@H]1CN(C)C(=O)Nc1ccc(C(F)(F)F)cc1	40
Cc1ccc(-c2nc3cc(NC(=O)COc4ccc([N+](=O)[O-])cc4)ccc3o2)cc1C	10
C[C@H]1CN([C@@H](C)CO)C(=O)Cc2cc(NC(=O)CCN3CCOCC3)ccc2O[C@H]1CN(C)Cc1ccccc1	-16
C[C@H]1CN([C@@H](C)CO)C(=O)c2cccc(NC(=O)c3ccc(-c4nccs4)cc3)c2O[C@H]1CN(C)C(=O)Nc1ccc(C(F)(F)F)cc1	44
COc1cc2c(cc1NC(=O)c1cc(-c3cccnc3)nc3ccc(C)cc13)oc1ccccc12	-9
O=C(CSc1nnnn1-c1ccccc1)Nc1cc(Cl)ccc1O	15
COc1ccc(S(=O)(=O)Nc2cccc3c2O[C@H](CN(C)Cc2ccccc2)[C@H](C)CN([C@H](C)CO)C3=O)cc1	15
C[C@@H]1CN([C@@H](C)CO)C(=O)c2cccc(NC(=O)c3cnccn3)c2O[C@@H]1CN(C)C(=O)Nc1cccc2ccccc12	22
Cc1ccc(NC(=O)COc2ccc(C(=O)Nc3ccc(F)cc3)cc2)cc1	0
NS(=O)(=O)c1ccc(NC(=O)CSc2nnc(-c3ccccc3Cl)n2-c2ccccc2)cc1	17
CC(=O)NCc1c(F)cccc1Cl	9
C[C@@H]1CN([C@H](C)CO)C(=O)c2cc(NC(=O)Cc3ccccc3)ccc2O[C@@H]1CN(C)Cc1ccc(Cl)c(Cl)c1	?
CC(C)NC(=O)N(C)C[C@H]1Oc2ccc(NC(=O)Cc3ccccc3)cc2CC(=O)N([C@H](C)CO)C[C@H]1C	-6
Cc1noc(C)c1NC(=O)Nc1ccc2c(c1)CC(=O)N([C@@H](C)CO)C[C@H](C)[C@H](CN(C)Cc1ccccc1)O2	16
CNC[C@@H]1Oc2c(NC(=O)c3ccncc3)cccc2C(=O)N([C@@H](C)CO)C[C@@H]1C	-1
COc1ccc(NC(=O)Nc2ccc3c(c2)CC(=O)N([C@@H](C)CO)C[C@H](C)[C@H](CN(C)Cc2ccc(C(=O)O)cc2)O3)cc1	34
CCn1c(SCC(=O)Nc2ccccc2)nc2ccc(I)cc2c1=O	15
Cc1noc(C)c1NC(=O)Nc1cccc2c1O[C@H](CN(C)C(=O)NC1CCCCC1)[C@@H](C)CN([C@@H](C)CO)C2=O	8
C[C@@H]1CN([C@H](C)CO)C(=O)c2cc(NS(=O)(=O)c3cccs3)ccc2O[C@@H]1CN(C)S(=O)(=O)c1ccc(Cl)cc1	26
CC1Nc2ccc(Cl)cc2S(=O)(=O)N1 (centres undefined)	7
Cc1noc(C)c1NC(=O)N(C)C[C@H]1Oc2c(NC(=O)NC3CCCCC3)cccc2C(=O)N([C@H](C)CO)C[C@H]1C	12
C[C@@H]1CN([C@H](C)CO)C(=O)c2cccc(NS(=O)(=O)c3cccs3)c2O[C@H]1CN(C)Cc1ccncc1	-7
C[C@H](CO)N1C[C@H](C)[C@@H](CN(C)C)Oc2ccc(NC(=O)Nc3ccc(C(F)(F)F)cc3)cc2C1=O	-3
C[C@@H]1CN([C@H](C)CO)C(=O)Cc2cc(NC(=O)C3CC3)ccc2O[C@@H]1CN(C)C	3
COc1ccc(S(=O)(=O)N(C)C[C@@H]2Oc3ccc(NS(=O)(=O)c4ccc(Cl)cc4)cc3CC(=O)N([C@H](C)CO)C[C@H]2C)cc1	-6
COC(=O)c1c(C)oc2ccc(N(C(=O)Oc3ccccc3)S(=O)(=O)c3ccc(C)cc3)cc12	42
C[C@@H]1CN([C@H](C)CO)C(=O)c2cc(NC(=O)Nc3ccccc3)ccc2O[C@H]1CN(C)Cc1ccccc1	15
C[C@@H]1CN([C@H](C)CO)C(=O)Cc2cc(NC(=O)c3ccncc3)ccc2O[C@@H]1CN(C)C(=O)Nc1ccc(F)cc1	17
C[C@@H]1CCCCO[C@@H](CN(C)CC2CCCCC2)[C@@H](C)CN([C@H](C)CO)C(=O)c2cc(NC(=O)CCC(F)(F)F)ccc2O1	13
Cc1noc(C)c1S(=O)(=O)Nc1ccc2c(c1)CC(=O)N([C@H](C)CO)C[C@H](C)[C@H](CN(C)Cc1ccc3c(c1)OCO3)O2	32
CCOc1ccc(NC(=O)CC2NCCNC2=O)cc1 (centres undefined)	17
O=C(O)c1cc(=O)[nH]c2c(C(F)(F)F)cccc12	17
C[C@H]1CN([C@@H](C)CO)C(=O)Cc2cc(NC(=O)Nc3ccc4c(c3)OCO4)ccc2O[C@@H]1CN(C)Cc1ccc2c(c1)OCO2	20
Cc1ccc(S(=O)(=O)Nc2ccc3c(c2)C(=O)N([C@H](C)CO)C[C@@H](C)[C@@H](CN(C)C(=O)Nc2ccc4c(c2)OCO4)O3)cc1	13

Grouped by structure, those above with a COOH group (2)
Compound	NOMO-1 viab
COc1ccc(NC(=O)Nc2ccc3c(c2)CC(=O)N([C@@H](C)CO)C[C@H](C)[C@H](CN(C)Cc2ccc(C(=O)O)cc2)O3)cc1	34
O=C(O)c1cc(=O)[nH]c2c(C(F)(F)F)cccc12	17

The list goes on.
Compound	NOMO-1 viab
Cc1cc(C(=O)Nc2cccc3c2O[C@H](CN(C)CC2CCCCC2)[C@H](C)CN([C@H](C)CO)C3=O)n(C)n1	3
Cc1noc(C)c1NC(=O)Nc1cccc2c1O[C@H](CN(C)C(=O)Nc1ccc(C(F)(F)F)cc1)[C@H](C)CN([C@H](C)CO)C2=O	8
Cc1cc(C)n2nc(SCC(=O)c3cccs3)nc2n1	24
CC(=O)Nc1ccc(S(=O)(=O)N2CCc3ccccc32)cc1	60
COc1ccc(C(=O)NCCc2c[nH]c3ccccc23)cc1[N+](=O)[O-]	-8
C[C@@H]1CN([C@@H](C)CO)C(=O)c2cccc(NC(=O)Nc3ccc(C(F)(F)F)cc3)c2O[C@H]1CN(C)S(C)(=O)=O	65
COC(=O)c1c(NC(=O)CC2Sc3ccccc3NC2=O)sc2c1CCC(C)C2 (centres undefined)	17
CC1C(=O)c2cc3c(cc2CCN(C)Cc2c1ccc1c2OCO1)OCO3 (centres undefined)	18
COc1ccccc1OCC(=O)Nc1sc2c(c1C#N)CCCCC2	13
COc1ccc(S(=O)(=O)Nc2cccc3c2O[C@H](CN(C)CC2CC2)[C@H](C)CN([C@H](C)CO)C3=O)cc1	-23
CC(CO)(CO)NC(=S)Nc1ccc(F)c(Cl)c1	22
C[C@H]1CN([C@@H](C)CO)C(=O)c2cccc(NS(=O)(=O)c3ccc(F)cc3)c2O[C@H]1CN(C)C	4
O=C(/C=C/c1ccccc1)Oc1ccc2ccccc2c1	23
C/C=C/C#CC#C[C@@H](O[C@@H]1O[C@H](CO)[C@@H](O)[C@H](O)[C@H]1O)[C@H](O)/C=C/CCCO	-3
C[C@@H]1CN([C@@H](C)CO)C(=O)Cc2cc(NC(=O)Cc3ccccc3)ccc2O[C@@H]1CN(C)Cc1ccc(Cl)c(Cl)c1	108*
COc1ccc(C(c2ccc3cccnc3c2O)N2CCOCC2)cc1 (centres undefined)	118*
CC(C)NC(=O)N(C)C[C@H]1Oc2c(NS(C)(=O)=O)cccc2C(=O)N([C@@H](C)CO)C[C@H]1C	13
COc1ccc(C2=Nn3c(nc4sc5c(c4c3=O)CCCC5)SC2)cc1	13
Cc1noc(C)c1NC(=O)Nc1ccc2c(c1)CC(=O)N([C@@H](C)CO)C[C@@H](C)[C@@H](CN(C)C(=O)Nc1ccc(F)cc1)O2	16
C[C@@H]1CCCCO[C@@H](CN(C)C(=O)c2ccncc2)[C@@H](C)CN([C@H](C)CO)C(=O)c2cc(NC(=O)c3ccccc3)ccc2O1	29
COc1ccc(S(=O)(=O)Nc2ccc3c(c2)CC(=O)N([C@H](C)CO)C[C@@H](C)[C@@H](CN(C)Cc2ccc(-c4ccccc4)cc2)O3)cc1	76
C[C@@H]1CN([C@H](C)CO)C(=O)c2cccc(NC(=O)c3ccncc3)c2O[C@@H]1CN(C)Cc1ccc2c(c1)OCO2	-11
COc1cc(C2C(C#N)=C(C)Nc3oc(C)nc32)ccc1OCCN1CCOCC1 (centres undefined)	38
Cc1ccc(S(=O)(=O)N(C)C[C@H]2OCCCC[C@@H](C)Oc3ccc(NC(=O)Nc4ccccc4)cc3C(=O)N([C@H](C)CO)C[C@@H]2C)cc1	23
C[C@@H]1CN([C@@H](C)CO)C(=O)c2cc(NC(=O)CCC(F)(F)F)ccc2O[C@@H]1CN(C)S(=O)(=O)c1cccs1	8
C[C@H](CO)N1C[C@H](C)[C@H](CN(C)Cc2ccncc2)Oc2ccc(NC(=O)Nc3ccccc3)cc2CC1=O	54

Another view of some results above:
> C[C@@H]1CN([C@H](C)CO)C(=O)c2cccc(NC(=O)c3ccncc3)c2O[C@@H]1CN(C)Cc1ccc2c(c1)OCO2
  NOMO-1 viab: -11

> COc1cc(C2C(C#N)=C(C)Nc3oc(C)nc32)ccc1OCCN1CCOCC1 (centres undefined)
  NOMO-1 viab: 38

> Cc1ccc(S(=O)(=O)N(C)C[C@H]2OCCCC[C@@H](C)Oc3ccc(NC(=O)Nc4ccccc4)cc3C(=O)N([C@H](C)CO)C[C@@H]2C)cc1
  NOMO-1 viab: 23

> C[C@@H]1CN([C@@H](C)CO)C(=O)c2cc(NC(=O)CCC(F)(F)F)ccc2O[C@@H]1CN(C)S(=O)(=O)c1cccs1
  NOMO-1 viab: 8
